NPYLR7 agonist: activates Aedes aegypti NPYLR7 receptor; HEK293T NPYLR7/Galpha15, GCaMP6s calcium fluorescence; activation, % at 10 µM; hit rate 0.15% among 270,000; AID 1259423; in the data active = activation above about 40%;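 also: 0% = vehicle and 100% = reference agonist at the receptor; some compounds past the cut are filed as inactive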
NPYLR7 agonist max-min: also measured in NPYLR7 agonist; calls as there; activation, %; measured here: Max-Min RFU normalised activation; some inactives read as strong as hits;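 span of the calcium signal over five minutes; 0% = vehicle and 100% = native peptide agonist; compound fluorescence can raise it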
Starred values were filed as active, the others as inactive; & = joins results of further samples. The list is partial (hit frequency here may not be typical).

SMILES	NPYLR7 agonist	NPYLR7 agonist max-min
CSc1cnn(-c2ccccc2)c1NC(=O)COCC1CCCO1 (stereo not drawn)	2	1
CCc1cc(CNC(=O)c2coc(COc3cccc(F)c3)n2)on1	19	7
CN(C)CCNC(=O)[C@@]1(OCc2ccc(F)cc2)CC(OCc2ccc(F)cc2)[C@H](O)[C@H](O)C1 (stereo partly drawn)	5	17
C[C@H](C(=O)NCCCn1ccnc1)N1Cc2ccc(N3CCOCC3)nc2C1=O	8	6
O=S(=O)(c1cc(Cl)cc(Cl)c1)N1CCC(c2c[nH]c3ccccc23)CC1	2	2
Cn1c(N)c(S(=O)(=O)N2CCN(C(c3ccccc3)c3ccccc3)CC2)c(=O)n(C)c1=O	3	1
O=C(Nc1ccccc1C(=O)NC1CCCC1)c1ccsc1	0	-3
Cn1cc(C=CC(=O)N2CCN(S(=O)(=O)c3ccccc3F)CC2)cn1	3	11
CCC(CC)CS(=O)(=O)N1CCN(C(=O)CC(F)(F)F)CC1	-6	-7
O=c1[nH]nc(Cc2ccc(O)cc2)n1Cc1ccc(Cl)cc1	15	5
CC(=O)Nc1ccc(F)c(C(=O)N(C2CC2)C2CCc3ccccc32)c1 (stereo not drawn)	0	0
Cc1cc(C)c2[nH]c(C(=O)NCc3nnc4n3CCCCC4)c(C)c2c1	0	-2
COC(=O)c1ccc(CNCC2=CC(C)(C)COc3ccc(OC)cc32)cc1	0	8
Cc1ccccc1-n1cc(CNCc2c(C(=O)N(C)C)nc3ccc(Cl)cn23)cn1	5&-6	2&-13
O=C(Cn1nc(-c2ccccc2)c2ccccc2c1=O)N1CCOCC1	5	5
CCCCn1c(=O)[nH]c(=O)c2c1nc(CSc1nncs1)n2CCC	-3	-4
Cc1nn(C)c(C)c1CN(C(=O)c1cc(C2CC2)[nH]n1)C(C)C	0	-5
CCN(CC)S(=O)(=O)c1cc(C(=O)Nc2nncs2)ccc1C	-15	-26
Cc1ccc2c(c1)C(C)(Cc1cccc(C(F)(F)F)c1)C(=O)N2 (stereo not drawn)	3	2
O=C(COc1ccccc1F)OCc1cc(-c2cc3ccccc3o2)on1	-3	-3
CCCn1nc(C(=O)Nc2nnc(-c3ccccc3Cl)s2)ccc1=O	4	1
COc1ccc(-n2nnc(C(=O)OCc3cccc(Cl)c3)c2C)cc1	5	-8
COc1cccc(-n2cc(CN(C)CC3CCOC3)cn2)c1 (stereo not drawn)	5	3
COc1ccc(F)cc1C(=O)C1CCCN(CCc2c[nH]c(=O)n(C)c2=O)C1 (stereo not drawn)	6	6
O=C(Nc1nc2ccc(F)cc2s1)c1ccc(CN2CCCCC2)cc1	14	19
CCOC(=O)C1(Cc2ccccc2C)CCCN(C(=O)c2n[nH]c3ccccc23)C1 (stereo not drawn)	15	15
Cc1cc(N2CCN(c3ccccc3Cl)CC2)nc(SCc2cccc(C(=O)NC3CC3)c2)n1	14	10
Cc1ccc(-c2[nH]c(=S)[nH]c(=O)c2C#N)cc1	-6	-11
CCNc1nc(-c2ccc(F)cc2)nc2ccccc12	17	25
CCc1nnc(NC(=O)COc2ccc(C)cc2)s1	11	11
O=C(NNC(=O)c1cc(F)ccc1F)c1ccc(O)cc1	9	4
C=C(C)CN(CC)C(=O)c1ccc(Cn2cnnn2)cc1	15	3
COc1ccccc1C(=O)NCC1Cc2cc(F)ccc2O1 (stereo not drawn)	3	3
CN1CC(=Cc2cccs2)C(=O)C(=Cc2cccs2)C1	2	25
CCc1ccc(C(C)NC(=O)c2ccc(S(=O)(=O)C(F)F)cc2)cc1 (stereo not drawn)	11	16
CCC(CC)C(=O)N(Cc1cc(NC(=O)c2cccs2)ccc1N(C)C)C1CCCCC1	-3	1
Cc1ccc(NC(=O)N2CCCC(c3nnc(C)s3)C2)cc1 (stereo not drawn)	-4	1
COCc1cc(C)nc(OCC(=O)N/N=C\c2cc(I)c(O)c([N+](=O)[O-])c2)c1C#N	0	12
O=c1cc(-c2ccc(O)cc2)oc2cc(O)cc(O)c12	13&-6&7	1&-6&-8
OCCC1CN(Cc2ccn[nH]2)CCN1Cc1ccccc1F (stereo not drawn)	12&3	3&0
Cc1cc(C)cc(-n2c(SCC(=O)N3CCCC3)nc3c(c2=O)SCC3)c1	-6	-8
COc1ccc(C)cc1CNc1ccccc1N1CCCCC1	1	1
CC1(C(=O)NS(C)(=O)=O)CCN1C(=O)C1(c2ccccc2)CC1 (stereo not drawn)	4	1
COCCCn1c(C(=O)NCCc2ccc(OC)cc2)cc2c(=O)n(C)c(=O)n(C)c21	1	1
Cc1ccc(C(=O)NCc2ccc(N(C)C)nc2)o1	5	5
O=C(CN(Cc1ccccc1)c1nc(Cc2ccc(Cl)cc2)ns1)N1CCN(c2ccccc2Cl)CC1	16	23
CCN1CCN(S(=O)(=O)c2ccc(Cl)c(C(=O)N(C)Cc3ccco3)c2)CC1	15	9
Cc1cc(C)cc(NC(=O)CC(=O)NC(c2cccnc2)C(F)(F)F)c1 (stereo not drawn)	12	10
O=C(C1CC1)N1CCC2(CC1)OCC(C(=O)N1CCOCC1)N2C(=O)c1ccc(F)cc1 (stereo not drawn)	0	6
C=c1cc(C)n(CC(=O)Nc2ccc(OC)c(Cl)c2)c(=O)c1=C1N=C(c2ccc(OC)cc2)NO1	-1	-7
c1nnc2c3c4c(sc3n3cnnc3n12)CCC4	11	4
Cc1ccccc1N1CCN(C2CCCN(c3cc(C4CC4)ncn3)C2)CC1 (stereo not drawn)	-2	-9
Cc1ccc(-c2nc(C=Nc3ccccc3)c(O)o2)cc1	-2	-6
CCCc1cc(CNC(=O)c2ccc(N3CCc4ncccc4C3)nc2)on1	-2	-1
O=C(c1cccc(Cl)n1)N1CCC(n2cnc3cc(C(F)(F)F)ccc32)CC1	-7	-13
S=c1[nH]nc(C2OCCc3ccccc32)o1 (stereo not drawn)	23	22
Cc1ccc(CN(CCc2ccccc2)C(=O)CN(Cc2ccco2)Cc2c(F)cccc2Cl)o1	-3	-3
NC(=O)c1c(NC(=O)COC(=O)C23CC4CC(CC(C4)C2)C3)sc2c1CCCC2	2	0
Cn1nnnc1SCc1ccc(Cl)c(Cl)c1	-1	-2
Cc1cc(C=C2SC(=O)NC2=O)cc(C)c1O	12	2

(list continues)
SMILES	NPYLR7 agonist	NPYLR7 agonist max-min
COc1ccc2sc(N(CCCN3CCOCC3)C(=O)c3cc(C)nn3C)nc2c1	9	7
CN1CCN(CCC(F)(F)F)CC12CCN(C(=O)COc1ccccc1)CC2	19	9
CC(C)(C)c1ccc(COc2coc(CN3CCN(C(=O)C4CCN(c5nccc(C(F)(F)F)n5)CC4)CC3)cc2=O)cc1	23	13
CNC(=O)CCN(C)c1nc(-c2cccnc2)nc2c1cnn2C	4	2
COc1cccc(C2c3[nH]c4ccccc4c3CCN2C(=O)c2ccoc2)c1 (stereo not drawn)	21	10
O=C(O)CN1C(=O)CSc2nnc(COc3ccc4c(c3)CCC4)n21	3	0
CCn1cc(Cn2ccnc2-c2ccc(-n3cccn3)cc2)cn1	-2	-4
COc1cccc(OCc2cc(C(=O)NCC3(N4CCCCC4)CCCCC3)no2)c1	0&13	0&13
CCN(CC)c1ccc2cc(-c3nnc(Nc4ccc(Br)cc4)s3)c(=O)oc2c1	-1	8
Cc1cc2c(cc1-c1c(-c3ccccc3)ncn1CCS(C)(=O)=O)OCO2	-1	-3
Cc1cccc(Cn2c(=O)c3c(nc4n(CC5CCCO5)c(C)cn34)n(C)c2=O)c1 (stereo not drawn)	-2	8
COCCCNC(=O)c1nn(-c2ccc(Cl)cc2)c(=O)n(Cc2ccc(F)cc2)c1=O	17	14
COCCCN1CCN(C(=O)CC(=O)Nc2ccccc2C)CC1	10	9
CC(=O)N1N=C(c2ccc(C(C)(C)C)cc2)OC1C(=O)N1CCN(CCO)CC1 (stereo not drawn)	36	32
Cc1cc(C)cc(C(=O)NC2CCN(C(=O)c3cc(-c4cccc(Cl)c4)n[nH]3)CC2)c1	-8	-10
OCC1(Cc2ccccc2)CCCN(Cc2cnn(-c3ccccc3Cl)c2)C1 (stereo not drawn)	10	1
CCC(=O)N1C(C(=O)N2CCOCC2)COC12CCC(C)CC2 (stereo not drawn)	0	12
Cc1cccc(-c2nnc(Sc3cc(C)nc(C)n3)n2CC(N)=O)c1	1	-1
CCOC(=O)C1(CCCc2ccccc2)CCN(C(=O)Cc2c(C)noc2C)CC1	-8	-14
Cc1ccc(Nc2nc(-c3cc4ccccc4oc3=O)cs2)cc1	-5	-13
CCc1nc2ccc(C(=O)N3CCN(C)CC3)cn2c1N(C)C(=O)Nc1ccccc1OC	-6	-9
COc1ccc(N2C(=O)CC(N3CCN(c4ccccc4)CC3)C2=O)cc1 (stereo not drawn)	0	-1
CC(C)(O)C#Cc1ccc(CN2CCC(N)(C(=O)O)C2)cc1 (stereo not drawn)	13	-3
COCCNC(=O)C(NC(=O)c1cccc(OC)c1)C1CCN(C(=O)Cc2ccccc2)CC1 (stereo not drawn)	3	4
Cc1ccsc1C(=O)N1CCC1(C)C(=O)Nc1cc(C(C)(C)C)nn1C (stereo not drawn)	3	0
CCOC(=O)[C@H]1[C@@H](O)C(=O)N(Cc2ccccc2)C12CCN(C(=O)C(CC)CC)CC2	2	8
CCN(C1CCS(=O)(=O)C1)S(=O)(=O)c1ccc2ccccc2c1 (stereo not drawn)	-6	-7
COc1cc(C=NN2CCN(C3c4ccccc4-c4ccccc43)CC2)cc(OC)c1O	-5	-8
O=C(COc1ccccc1Br)c1ccc2c(c1)OCCO2	6	3
CC(NC(=O)CN1C(=O)NC(C)(c2cccc(Br)c2)C1=O)c1cccc(Cl)c1 (stereo not drawn)	5	2
O=C(c1cc2nc(-c3cccs3)cc(C(F)(F)F)n2n1)N1CCN(C(c2ccccc2)c2ccccc2)CC1	-4	-8
CCOC(=O)C1=C(c2ccccc2)Nc2ncnn2C1c1ccc(OC)cc1 (stereo not drawn)	3	9
CCN(Cc1nccn1C)C(=O)c1ccc(-c2cc3ccccc3o2)nc1	-2	-5
CCOc1ccc(-c2nc(Cn3ccn4nc(-c5ccc(C)cc5)cc4c3=O)c(C)o2)cc1OC	-4	-8
Cc1cccc([N+](=O)[O-])c1N=Nc1c(C)[nH]n(-c2nc(-c3ccc(Cl)cc3)cs2)c1=O	1	-6
O=c1[nH]c2ccc(Cl)cc2c(-c2ccccc2)c1Sc1nc2ccccc2[nH]1	-3	-10
CCN(CC(=O)N1CCNC1=O)Cc1ccc(Br)s1	1	0
O=C(NCCc1cn[nH]c1)c1cc(Cl)ccc1OC1CCN(C2CCCC2)CC1	-4	-9
Cn1cc(-c2ccc3c(c2)COCC(=O)N3CC2CCCCC2)cn1	-3	-4
CC1=NC2=C(C(=O)CC(c3ccccc3)C2)C(c2cccc(F)c2)C1C#N (stereo not drawn)	9	7
CCC(CC)C(=O)Nc1c(OC(=O)N(CC)CC)ccc2c1ccn2Cc1cccc(F)c1	-8	-19
COc1ccc2c(c1)CCc1c-2noc1-c1ccc(C)c(NC(=O)[C@H](C)OC(C)=O)c1	6	8
O[C@@H]1C[C@@H]2CO[C@@H](c3ccccc3)C[C@@]2(O)[C@H]1N1CCOCC1	-3	-4
N#CC1C(=N)SC2C(=O)N(c3ccc(F)cc3)C(=O)C2C1c1ccco1 (stereo not drawn)	-3&11	-4&8
CC1=CCCC(C)(C)C1C=CC(C)=NNC(=S)Nc1cccnc1 (stereo not drawn)	6	7
CC(=O)NC1CCC(NC(=O)[C@H]2CCCN2C(=O)C(c2ccccc2)c2ccccc2)CC1 (stereo partly drawn)	0	6
CCCCc1ncc(CN2CCN(Cc3ccc(OCC)cc3)C(CCO)C2)[nH]1 (stereo not drawn)	0	-6
COc1cccc(C(C#N)N2CCCCC2)c1O (stereo not drawn)	2	2

Laid out differently: results already given
Under each structure: NPYLR7 agonist, NPYLR7 agonist max-min
- CCN(CC(=O)N1CCNC1=O)Cc1ccc(Br)s1
  1, 0
- CC1=CCCC(C)(C)C1C=CC(C)=NNC(=S)Nc1cccnc1 (stereo not drawn)
  6, 7
- COc1cccc(C(C#N)N2CCCCC2)c1O (stereo not drawn)
  2, 2
- Cn1cc(-c2ccc3c(c2)COCC(=O)N3CC2CCCCC2)cn1
  -3, -4
- CC1=NC2=C(C(=O)CC(c3ccccc3)C2)C(c2cccc(F)c2)C1C#N (stereo not drawn)
  9, 7

Quoted at random: six records from the list.
SMILES	NPYLR7 agonist	NPYLR7 agonist max-min
CCC(CC)C(=O)Nc1c(OC(=O)N(CC)CC)ccc2c1ccn2Cc1cccc(F)c1	-8	-19
Cc1cccc([N+](=O)[O-])c1N=Nc1c(C)[nH]n(-c2nc(-c3ccc(Cl)cc3)cs2)c1=O	1	-6
CC1=NC2=C(C(=O)CC(c3ccccc3)C2)C(c2cccc(F)c2)C1C#N (stereo not drawn)	9	7
Cn1cc(-c2ccc3c(c2)COCC(=O)N3CC2CCCCC2)cn1	-3	-4
CCOc1ccc(-c2nc(Cn3ccn4nc(-c5ccc(C)cc5)cc4c3=O)c(C)o2)cc1OC	-4	-8
COc1cccc(C(C#N)N2CCCCC2)c1O (stereo not drawn)	2	2

Screening data (PubChem)
